# Compound activity from PubChem.
# YopH PTP inh – inhibitors of Yersinia enterocolitica YopH tyrosine phosphatase | inhibition, %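 (about 10 µM by stock and volumes)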 | fluorescence Ex485/Em525 | 0.16% of 140,000 active;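 active = inhibition of 50% or more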;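 also: controls were vehicle for no effect and minimum signal wells for full effect; inactives centre near -20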
# Mtb growth – M. tuberculosis H37Rv growth inhibitors, H37Rv strain (AID 1626); M. tuberculosis H37Rv growth inhibition; higher % means a stronger effect; one-dose inhibition, % at 10 µM; IC50 in µM for titrated hits; 0.95% of 220,000 active;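 active = confirmed in a dose series; inconclusive = inhibition above 80% but not taken into the dose series; inactive = below 80% or under 30% at every dose of the series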;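 also: bacteria incubated seven days before Alamar blue readout; 0% = bacteria only wells and 100% = bacteria with antibiotic wells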
# Arbovirus inh – arbovirus infection inhibition | inhibition, % at 10 µM | 0.37% of 200,000 active | arbovirus infection cell-based antiviral screen;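 active = inhibition from about 30%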;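 also: bluetongue infection of BSR cells; cell survival read as ATP light after 72 h; 0% = infected wells without compound and 100% = uninfected wells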
# Mtb bLac sens – beta-lactam sensitization of Mtb H37Rv. M. tuberculosis H37Rv growth with meropenem, percent inhibition; hits of this screen are not shown here. inhibition, % at 25 µM. 0.27% of 330,000 active;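 active = about 74% or more and at least 40 points above the plate without the antibiotic, then above 30% in a dose series; inconclusive = first-round hits that could not be retested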;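 also: growth measured after seven days incubation then overnight dye step; 0% = bacteria only wells and 100% = bacteria with antibiotic; twin plates without the antibiotic show which effects depend on it; some results filed as inactive read as strong as hits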
# RecA intein inh – Mtb RecA intein splicing inhibition; P9WHJ3; cell-free RecA intein splicing, fluorescence; inhibition, %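 (about 9 µM by stock and volumes)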; 0.75% of 290,000 active; in the data active = inhibition above about 30%; inconclusive = no clear call, values can overlap the other calls;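 also: 0% = vehicle wells and 100% = reference inhibitor control wells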
# Target sequence (P9WHJ3 whole entry, looked up): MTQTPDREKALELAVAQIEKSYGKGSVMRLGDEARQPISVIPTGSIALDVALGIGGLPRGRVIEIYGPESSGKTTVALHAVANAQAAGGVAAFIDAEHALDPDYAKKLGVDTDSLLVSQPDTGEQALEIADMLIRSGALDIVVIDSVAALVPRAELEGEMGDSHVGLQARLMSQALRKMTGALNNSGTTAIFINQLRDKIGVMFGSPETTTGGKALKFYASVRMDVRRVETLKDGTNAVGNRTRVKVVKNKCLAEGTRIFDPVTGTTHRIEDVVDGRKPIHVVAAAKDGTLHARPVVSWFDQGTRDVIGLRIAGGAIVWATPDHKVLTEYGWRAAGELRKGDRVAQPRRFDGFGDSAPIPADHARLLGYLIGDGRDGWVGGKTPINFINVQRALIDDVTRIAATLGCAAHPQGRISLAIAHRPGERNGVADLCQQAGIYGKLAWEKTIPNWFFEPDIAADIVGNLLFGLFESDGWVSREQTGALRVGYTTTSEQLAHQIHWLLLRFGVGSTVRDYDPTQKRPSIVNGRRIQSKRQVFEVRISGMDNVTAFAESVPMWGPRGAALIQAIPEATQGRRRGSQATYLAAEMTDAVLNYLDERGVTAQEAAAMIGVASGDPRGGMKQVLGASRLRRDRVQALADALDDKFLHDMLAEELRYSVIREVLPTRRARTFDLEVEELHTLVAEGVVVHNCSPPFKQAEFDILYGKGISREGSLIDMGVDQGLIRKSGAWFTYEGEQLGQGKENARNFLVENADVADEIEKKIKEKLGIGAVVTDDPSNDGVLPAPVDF
# Arbovirus inh repeat – also measured in Arbovirus inh; calls as there; inhibition, %; measured here: 10K subset replicate screen; many hits read low in the repeat;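 first of two repeat runs on a subset; 0% = infected and 100% = uninfected wells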
# Starred values were filed as active, the others as inactive; ? = inconclusive; · = no result given. A portion of the library, so the mix of outcomes need not match the whole.
SMILES,YopH PTP inh,Mtb growth,Arbovirus inh,Mtb bLac sens,RecA intein inh,others
CCN1CCN(c2ncnc3c2c(-c2ccccc2)cn3-c2ccc(F)cc2)CC1,·,74%,3,77,3.0,
Cc1cc(-c2ccc(Cl)cc2)c(C#N)c(N)n1,-33,18%,0,1,·,
CC1CCc2c(sc3nc(CN4CCOCC4)nc(Sc4ccccc4)c23)C1 (centres undefined),-23,14%,11,?,-1.8,
Cc1ccc2sc(N(CCN(C)C)C(=O)/C=C/c3cccs3)nc2c1C,·,·,·,66,3.5,
CCN1CCC(O)(c2ccccc2)C(C(=O)c2ccccc2)C1 (centres undefined),-28,51%,·,100,1.7,
Cc1c(NC(=O)Nc2ccc(Cl)cc2)c(=O)n(-c2ccccc2)n1C,-28,-7%,0,6,·,
COc1ccc(C2(CNC(=O)c3ccc(OCC(C)C)cc3)CCOCC2)cc1,-18,8%,12,4,2.1,
O=C(CCCCCCN1C(=O)c2ccccc2C1=O)N1CCC(c2ccccc2)C1 (centres undefined),-22,-6%,9,0,3.0,
COc1ccc(Nc2ncc(C(=O)O)c3ccccc23)cc1,7,5%,4,4,-5.5,
Cc1cc(NC(=O)c2ccccc2C)ccc1NC(=O)c1ccccc1Cl,·,·,·,7,0.1,
Cc1cc(C)nc(SCC(=O)Nc2nonc2N)n1,·,4%,4,0,0.6,
Cc1ccc([N+](=O)[O-])cc1N/C=C/C(=O)c1ccco1,-20,-7%,-20,3,2.9,
O=C(CCC(=O)N1CCCC1)Nc1ccc(Cl)c(Cl)c1,·,·,·,94,17,
CCn1c(SCC(=O)N(C)CC(=O)Nc2ccc(F)c(F)c2F)nnc1-c1ccco1,·,·,·,-15,-0.2,
CCCN1C(=O)SC(CC(=O)Nc2cccc3ccccc23)C1=O (centres undefined),-20,0%,-3,12,7.9,
Cc1ccc(N(C(=O)CCC(=O)Nc2cc(C)on2)C(C(=O)NC2CCCC2)c2cccs2)cc1 (centres undefined),-8,12%,-4,-13,-0.5,
Cc1nn(C(C)C(=O)NCCN2CCCCCC2)c(=O)c2nn(-c3ccccc3)c(C)c12 (centres undefined),·,·,·,4,-0.5,
Cc1ccc2[nH]c(=O)c(-c3nc4ccccn4c3NCc3ccco3)cc2c1,31,0%,-10,-1,-1.3,
CN(C)c1ccc(C(CNC(=O)c2ccc(F)cc2)c2c[nH]c3ccccc23)cc1 (centres undefined),-42,11%,-19,18,-0.5,
CCOc1ccc(NC(=O)CC2C(=O)N(c3ccc(OC)cc3)C(=O)N2CCc2cccs2)cc1 (centres undefined),-3,-3%,4,53,3.9,
C=C1N2CCC(CC2)C1(O)c1ccccc1C (centres undefined),0,2%,2,-7,·,
C=CCN1C(=O)C(Cc2ccccc2)SC1=Nc1ccc(C(=O)O)cc1 (centres undefined),-12,1%,4,2,0.5,
O=C(/C=C/c1ccc(Br)cc1)c1ccco1,-12,15µM*,4,100,1.7,
CCCCc1cc(=O)oc2cc(OC3CCCCC3=O)ccc12 (centres undefined),·,·,·,-5,0.3,
CCOc1ccc(-c2n[nH]c(C)c2Oc2ccc(OC)cc2)c(O)c1,-27,-9%,-43,5,8.3,
COC(=O)C1=C(C)N(C)C(C)=C(C(=O)OC)C1c1ccccn1,7,-1%,2,-1,0.4,
Cc1ccc(SCc2[nH]nc3c2C(c2ccco2)C(C#N)=C(N)O3)cc1 (centres undefined),-42,-13%,-7,5,73*,
COCCNC(=O)C(c1ccc(O)cc1)N(Cc1ccccc1)C(=O)CCC(=O)Nc1ccccn1 (centres undefined),·,·,·,-1,4.0,
Cc1ccc(C)c(NC(=O)Cn2nc(C(F)(F)F)cc2C2CC2)c1,-18,7%,-11,-1,4.7,
Cc1ncc2c(c1OC(=O)c1ccc([N+](=O)[O-])cc1)COC(C)(C)OC2,-31,4%,5,15,11,
Cn1c(=O)[nH]c(=O)c2c1nc(N1CCCCC1)n2CCSc1ncccn1,·,·,5,-3,-0.8,Arbovirus inh repeat=0
COc1ccc(Cn2c(=S)[nH]c3cc(OC)c(OC)cc3c2=O)cc1,·,4%,-6,-5,0.0,
COc1cc2c(cc1OC)C(C)N(S(=O)(=O)c1cn(C)c(C)n1)CC2 (centres undefined),·,5%,·,-6,2.8,
COc1ccc(CCC(=O)OCC(=O)Nc2ccccc2)cc1,·,·,·,6,0.2,
N#Cc1c(NC(=O)CCCl)sc2c1CCCCC2,·,8%,-3,61,-0.1,
CCOCc1nnc(NC(=O)CSCc2ccccc2)s1,-26,-2%,-4,-1,0.6,
Cc1cc(-n2c(C)cc(C(=O)CCl)c2C)no1,·,?,-31,100,24,
CC(C)CN1CCC(C(=O)NCC2CCCO2)CC1 (centres undefined),-12,3%,-3,-3,-1.2,
CN(C)[C@@H](CO)c1nnc([C@H](Cc2ccc(O)cc2)NC(=O)C2CCNCC2)o1,·,2%,4,-19,-1.6,
N#Cc1c(/N=C/c2ccccc2)oc(-c2ccccc2)c1-c1ccccc1,2,3%,-9,3,3.1,

# Copied from the listing (six entries):
SMILES,YopH PTP inh,Mtb growth,Arbovirus inh,Mtb bLac sens,RecA intein inh,others
Cn1c(=O)[nH]c(=O)c2c1nc(N1CCCCC1)n2CCSc1ncccn1,·,·,5,-3,-0.8,Arbovirus inh repeat=0
COc1ccc(Cn2c(=S)[nH]c3cc(OC)c(OC)cc3c2=O)cc1,·,4%,-6,-5,0.0,
COc1cc2c(cc1OC)C(C)N(S(=O)(=O)c1cn(C)c(C)n1)CC2 (centres undefined),·,5%,·,-6,2.8,
COc1ccc(CCC(=O)OCC(=O)Nc2ccccc2)cc1,·,·,·,6,0.2,
N#Cc1c(NC(=O)CCCl)sc2c1CCCCC2,·,8%,-3,61,-0.1,
CCOCc1nnc(NC(=O)CSCc2ccccc2)s1,-26,-2%,-4,-1,0.6,

# Next entries follow.
SMILES,YopH PTP inh,Mtb growth,Arbovirus inh,Mtb bLac sens,RecA intein inh,others
COCCNC(=O)CN1C(=O)CSc2cc(S(=O)(=O)N3CCCCCC3)ccc21,6,2%,9,-3,2.5,Arbovirus inh repeat=0
CC(=O)c1cccc(NC(=O)N2C3CCC2CC(NC(=O)Nc2ccccc2)C3)c1 (centres undefined),·,-2%,-8,-2,0.0,
COc1cc(C(=O)Nc2cccc(-c3nc4cc(C)cc(C)c4o3)c2)cc(OC)c1OC,-53,-7%,6,·,·,
Cc1cc2c(cc1S(=O)(=O)N(C)Cc1ccccc1)OCC(=O)N2,·,·,·,-9,-1.2,
CC(C)(C)C(=O)NC1CCN(S(=O)(=O)c2cccc(C(F)(F)F)c2)CC1,-14,-8%,-4,5,0.3,
CCc1c(C)sc(NC(=O)c2noc(C)c2[N+](=O)[O-])c1C#N,·,-1%,15,87,-1.9,
CC(=O)c1ccc(Nc2nc(=O)c3cccnc3s2)cc1,0,·,-11,-4,-0.7,
Nc1ccc(C#Cc2ccc3c(=O)c4ccccc4oc3c2)cc1,·,·,·,0,-12,
COc1ccccc1C(NC(C)=O)c1cc(Cl)c2cccnc2c1O (centres undefined),·,·,·,-2,-0.6,
CCOc1ccc(Br)cc1C(=O)Nc1ccc(C(=O)NCC(C)C)cc1,-27,9%,-10,-4,-2.5,
COc1ccc(Cc2nnc(N)s2)cc1OC,-24,-2%,-3,1,-0.7,
Cc1ccccc1NC(=O)CN1C(=O)N/C(=C\c2cccn2-c2cccc(C(=O)O)c2)C1=O,·,-7%,14,-6,1.4,
COC(=O)c1c(NC(=O)CSc2nnnn2C)sc(C)c1C,-53,9%,0,-3,-2.2,
NC(=O)C(c1ncc(C(F)(F)F)cc1Cl)c1c(Cl)cccc1Cl (centres undefined),-49,-14%,-1,-2,-0.1,
CSc1nnc(NC(=O)c2cc3ccccc3oc2=O)s1,-25,?,-2,91,1.6,Arbovirus inh repeat=5
COCCNC(=O)Cn1nc(C)c([N+](=O)[O-])c1C,·,0%,-2,4,0.3,
O=C(O)CCCNS(=O)(=O)c1ccc(Br)s1,-26,-4%,7,1,·,
N/C(=N\OC(=O)c1ccccc1F)c1ccc([N+](=O)[O-])cc1,·,·,·,2,-0.9,
CN(C)N1C(N)=C(C#N)C(c2cccnc2)C2=C1CC(C)(C)CC2=O (centres undefined),-17,-4%,10,-10,-0.2,
COc1cc(CCN2C(=O)c3cccc4cccc(c34)C2=O)c(S(=O)(=O)N2CCC(C)CC2)cc1OC,-24,-1%,-2,3,-2.2,
Cc1ccc2cc(C#N)c(SCC(=O)NNC(=O)Cc3ccccc3)nc2c1,-21,·,0,·,·,
O=C(Nc1ccc(Cl)c(Cl)c1)C1CCN(C(=O)c2ccco2)CC1,·,·,·,-8,3.8,
CC(C)COP(=O)(OCC(C)C)C(Nc1ccccc1)c1ccccc1 (centres undefined),·,9%,·,5,8.0,
Cc1ccc(S(=O)(=O)NCCC(=O)OCC(=O)N(Cc2ccccc2)C(C)(C)C)cc1,·,·,·,-7,-2.2,
O=C(CCC1CCCC1)NNC(=O)c1cc2ccccc2cc1O,·,·,·,4,0.0,
Cc1cc2cc(C#N)c(N3CCOCC3)nc2cc1Cl,·,·,·,5,-18,
Cc1cccc(NC(=O)CCOc2ccccc2)c1,-13,-2%,-1,1,2.4,
Cc1cc(C)n2c(nc3ccccc32)c1C(=O)NCc1ccccc1,·,-4%,-6,-4,-2.4,
Cc1nc2ccccc2nc1N/N=C/c1ccc(O)cc1,·,-6%,·,2,-7.2,
Fc1cccc(Cl)c1CN1CCN(c2nc3ccccc3s2)CC1,·,·,·,1,16,
Cn1cnc2c1c(=O)[nH]c(=O)n2C,·,·,·,-2,-4.2,
COc1ccc(C)cc1S(=O)(=O)NC1CCCC1,-1,-6%,20,-10,0.7,
Cc1ccccc1C(=O)O/N=C(\N)c1ccccc1,·,·,·,9,1.1,
Cc1cc2ccccn2c1C(=O)c1ccc([N+](=O)[O-])o1,·,74%,-37,·,8.1,

# 3 entries from above, ordered by length of the SMILES, falling.
SMILES,YopH PTP inh,Mtb growth,Arbovirus inh,Mtb bLac sens,RecA intein inh,others
Cc1cc2ccccn2c1C(=O)c1ccc([N+](=O)[O-])o1,·,74%,-37,·,8.1,
Cc1ccccc1C(=O)O/N=C(\N)c1ccccc1,·,·,·,9,1.1,
COc1ccc(C)cc1S(=O)(=O)NC1CCCC1,-1,-6%,20,-10,0.7,

# Entries shown so far containing a CF3 group (three):
SMILES,YopH PTP inh,Mtb growth,Arbovirus inh,Mtb bLac sens,RecA intein inh,others
Cc1ccc(C)c(NC(=O)Cn2nc(C(F)(F)F)cc2C2CC2)c1,-18,7%,-11,-1,4.7,
CC(C)(C)C(=O)NC1CCN(S(=O)(=O)c2cccc(C(F)(F)F)c2)CC1,-14,-8%,-4,5,0.3,
NC(=O)C(c1ncc(C(F)(F)F)cc1Cl)c1c(Cl)cccc1Cl (centres undefined),-49,-14%,-1,-2,-0.1,
